StopGo reporter – FMDV 2A StopGo reporter, luciferase signal | human cells with a luciferase reporter of 2A StopGo recoding; control for the full effect not named in the record | Potency, µM (highest dose often 57.9 µM), for the others: top-dose signal change, negative = less light | hit rate 1.2% among 410,000 | AID 1159524; active = well fitted falling curve with a large enough effect; inconclusive = small, poorly fitted or top-dose-only effect; inactive = no such curve, though single readings can be large or run the other way; tested in HEK293T cells; also: % is scaled to controls: 0 for no effect and ±100 for the full control effect; nearly all actives have a fitted effect of over 45% in size; luciferase light after 4 h
RE007 growth inh – less growth of the S. pombe RE007 Vpr strain | S. pombe RE007 Vpr strain, BacTiter-Glo ATP luminescence, 24 h; control for the full effect not named in the record | Potency, µM (highest dose often 92.2 µM), without a hit: top-dose activity change, negative = less growth | hit rate 0.21% among 360,000; active = well fitted falling curve with a large enough effect; inconclusive = small, poorly fitted or top-dose-only effect; inactive = no such curve, though single readings can be large or run the other way;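 also: % is scaled to controls: 0 for no effect and ±100 for the full control effect; nearly all actives have a fitted effect of over 50% in size; the assay follows cell death caused by Vpr and the record does not say whether a fall means rescue or toxicity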
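Fission yeast strain RE007, carrying one chromosomally integrated HIV-1 vpr copy, was seeded at OD 0.01 in PMG+AL medium with 23 nL pinned compound. After 24 h at 30 °C and 99% humidity, viability was read by BacTiter-Glo luminescence.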
SARS PLP yeast – inhibitors of SARS-CoV papain-like protease in yeast; S. cerevisiae expressing SARS-CoV PLpro, growth rescue; control for the full effect not named in the record; Potency, µM (top dose mostly 32.9 µM), without a hit: top-dose activity, positive = growth rescue; hit rate 0.19% among 330,000; AID 485353; active means well fitted rising curve with a large enough effect; inconclusive means small, poorly fitted or top-dose-only effect; inactive means no such curve, though single readings can be large or run the other way; also: 0% is about no effect; nearly all actives have a fitted effect of over 55% in size; growth read by luminescence after 48 h
* = called active by the depositor; ? = inconclusive; [ ] = remark or other dose. Potency is read from the fitted curve at half-maximal effect. An excerpt; the hit share may differ from the screen's.

Preview, four compounds:
Values run as follows: SARS PLP yeast | RE007 growth inh | StopGo reporter
Cc1ccc(-n2ncc(C(=O)Nc3cc(Cl)ccc3C)c2C2CCNCC2)cc1C
    0% | -14% | -22%
Fc1ccc(CN2CC[C@H]3C=CCc4cccc(c43)C2)cc1
    1% | -29% | ?
COc1ccc2ccc(C(C)(C(C)=O)C(=O)OC(C)C)cc2c1 (stereo not given)
    -1% | -10% | -23%
CCOC(=O)CC[C@H](NC(=O)Cn1cnc(C(=O)Nc2ccc(C)c(C)c2)n1)C(=O)OCC
    4% | -2% | 37%[activator]

The whole of this part (from the top)
Values run as follows: SARS PLP yeast | RE007 growth inh | StopGo reporter
Cc1ccc(-n2ncc(C(=O)Nc3cc(Cl)ccc3C)c2C2CCNCC2)cc1C
    0% | -14% | -22%
Fc1ccc(CN2CC[C@H]3C=CCc4cccc(c43)C2)cc1
    1% | -29% | ?
COc1ccc2ccc(C(C)(C(C)=O)C(=O)OC(C)C)cc2c1 (stereo not given)
    -1% | -10% | -23%
CCOC(=O)CC[C@H](NC(=O)Cn1cnc(C(=O)Nc2ccc(C)c(C)c2)n1)C(=O)OCC
    4% | -2% | 37%[activator]
CC1(C)C[C@H](O)[C@]2(CO)[C@H](O)C[C@]3(C)C(=CCC4[C@@]5(C)CC[C@H](O)C(C)(C)C5CC[C@]43C)[C@@H]2C1 (stereo not given in full)
    2% | 12% | ?
CS(=O)(=O)N(Cc1ccccc1Cl)c1ccc(C(=O)NCc2cccnc2)cc1
    -1% | -3% | ?
COc1cc2cc(CCCOC(=O)c3ccc(Br)cc3)oc(=O)c2cc1OC
    1% | -23% | -18%
COC(=O)c1ccccc1S(=O)(=O)NNC(=O)C12CC3CC(CC(C3)C1)C2
    1% | 3% | 14%
COc1cccc(N2CCN(CC(=O)Nc3ccnn3C3CCCC3)CC2)c1
    2% | -6% | ?
Cc1ccc(C(=O)NC(Cc2cccc(C(F)(F)F)c2)C(=O)O)cc1 (stereo not given)
    0% | 8% | 2%

An excerpt from above in order of length of the SMILES, rising:
Values run as follows: SARS PLP yeast | RE007 growth inh | StopGo reporter
COc1cccc(N2CCN(CC(=O)Nc3ccnn3C3CCCC3)CC2)c1
    2% | -6% | ?
Cc1ccc(C(=O)NC(Cc2cccc(C(F)(F)F)c2)C(=O)O)cc1 (stereo not given)
    0% | 8% | 2%
Cc1ccc(-n2ncc(C(=O)Nc3cc(Cl)ccc3C)c2C2CCNCC2)cc1C
    0% | -14% | -22%
COC(=O)c1ccccc1S(=O)(=O)NNC(=O)C12CC3CC(CC(C3)C1)C2
    1% | 3% | 14%
CC1(C)C[C@H](O)[C@]2(CO)[C@H](O)C[C@]3(C)C(=CCC4[C@@]5(C)CC[C@H](O)C(C)(C)C5CC[C@]43C)[C@@H]2C1 (stereo not given in full)
    2% | 12% | ?

(cont.)
Values run as follows: SARS PLP yeast | RE007 growth inh | StopGo reporter
Cc1nn(-c2ccccc2)c(C)c1C(=O)Nc1ccc(N2CCOCC2)cc1
    0% | 1% | 6%
N#CCCN(C(=O)COC(=O)C12CC3CC(CC(O)(C3)C1)C2)c1ccc(F)cc1
    1% | -6% | -19%
CCOC(=O)C1=C(C)N(C[C@@H]2CC[C@@H](Cc3ccc4cc(OC)ccc4c3)O2)C(=O)NC1c1ccc(OC)cc1 (stereo not given in full)
    -15% | -21% | 0%
O=C(NCc1nnc(SCC(=O)N2CCCc3ccccc32)o1)c1ccccc1F
    1% | 10% | -4%
COC(=O)C1=C(c2ccc(Cl)c(C(F)(F)F)c2)C[C@@H]2CC[C@H]1N2C(=O)N1CCOCC1
    -8% | -21% | -11%
CCN(CC)C(=O)c1ncn(C)c1C(=O)N(CC)CC
    0% | 4% | -10%
COc1ccccc1C(=O)NC(CCSC)C(=O)OCC(=O)N1CCCC1=O (stereo not given)
    6% | -5% | -1%
CCOC(=O)c1c(C)[nH]c(C)c1C(=O)CN1C(=O)NC2(CCCCCC2)C1=O
    -10% | 10% | -6%
CCc1cc(Cn2nc(-c3ccccc3)cc2C(=O)NCc2cccc(C(F)(F)F)c2)on1
    0% | -14% | -17%
O=C(CSc1ccccc1F)Nc1ccc(N2CCOCC2)cc1
    1% | -8% | 54%[activator]
Cc1ccc(CNC(=O)c2ccc(N3CCC4(CC3)CC(c3ccccc3)=NO4)c(NC(=O)c3ccc(Cl)c([N+](=O)[O-])c3)c2)cc1
    -6% | 9% | -4%
COc1ccc(CCC(=O)N2CCN(S(=O)(=O)c3ccc(OC)cc3)CC2)cc1
    9% | -9% | -2%
COc1ccc(OC)c(NC(=O)COC(=O)/C=C/c2ccco2)c1
    -3% | -14% | -13%
Cc1cccc(OCCNS(=O)(=O)c2ccc(Cl)cc2)c1
    1% | -6% | 2%
Cc1ccc(NC(=O)CCNC(=O)c2ccc([N+](=O)[O-])cc2)cc1S(=O)(=O)N1CCOCC1
    -11% | 0% | -8%
O=C(COC(=O)c1ccc(Cl)c(S(=O)(=O)N2CCCCC2)c1)NCC1CCCO1 (stereo not given)
    -1% | 6% | -10%
c1cncc(-c2ccc3[nH]ccc3c2)c1
    1% | -8% | 45%[activator]
COc1ccc(/C=C/C(=O)OCC(=O)NCCC2=CCCCC2)cc1
    -5% | -6% | 9%
Cc1ccc(S(C)(=O)=O)cc1C(=O)Nc1cccc(S(=O)(=O)N2CCCCCC2)c1
    3% | -7% | -19%
CCOc1ncccc1C(=O)Nc1ccc(S(=O)(=O)Nc2cc(C)nc(C)n2)cc1
    4% | 3% | 60%[activator]
COc1ccc(NC(=O)Nc2cccc3c2O[C@@H](CN(C)CC2CCCCC2)[C@@H](C)CN([C@H](C)CO)C3=O)cc1
    -14% | -9% | 34%[activator]
Nn1c(SCC(=O)NCc2ccc3c(c2)OCO3)nnc1C(F)(F)F
    7% | 0% | 0%
Clc1ccc(-c2ccccc2)cn1
    -3% | 1% | 4%
N#Cc1ccc(OCC(=O)N/N=C/C2CC=CCC2)cc1 (stereo not given)
    0% | -6% | 3%
COC(=O)c1ccc(COc2ccccc2/C=N/Nc2cccc(C(=O)O)c2)cc1
    -1% | -9% | 25%
COc1ccc(F)cc1-c1nc(N)nc(N)n1
    2% | -14% | -19%
CCC(C(=O)Oc1c(C(C)C)cccc1C(C)C)c1ccccc1 (stereo not given)
    3% | -5% | -16%
COc1ccc(NC(C)=O)c(C)c1
    2% | -2% | -22%
CCOC(=O)C1=CN2CCC[C@H]2CC1=O
    4% | 7% | -9%
CCN(C(=O)CSc1n[nH]c(-c2ccccc2)n1)c1c(N)n(Cc2ccccc2)c(=O)[nH]c1=O
    -1% | -1% | -13%
COc1cccc(/C=C/C(=O)OCC(=O)c2ccc(S(=O)(=O)N3CCCCC3)cc2)c1OC
    -1% | 6% | -19%
CCOC(=O)c1c(C)[nH]c(C2=NNC(=NC3CC3)SC2)c1C
    0% | -15% | 22µM*
Cc1ccc(NC(=O)NC(=O)CN2CCCC2c2ccc3c(c2)OCCO3)cc1C (stereo not given)
    -5% | -10% | -11%
COC(=O)C1=C(c2ccc(-c3ccccc3)c(F)c2)C[C@@H]2CC[C@H]1N2C(=O)NCCO
    -8% | -16% | -1%
CNC(=S)Nc1ccc(OC(F)(F)F)cc1
    0% | -18% | 16%
CCN1C(=O)C(=O)N(CC(=O)N2CCC(C)Sc3ccccc32)C1=O (stereo not given)
    2% | -1% | -10%
COc1ccccc1NS(=O)(=O)c1cccc(C(=O)N2CCN(C(=O)c3ccco3)CC2)c1
    4% | 5% | -14%
Cc1cccc(NC(=O)CN2C(=O)C(C)Oc3ccccc32)n1 (stereo not given)
    1% | 22% | 7%
C[C@]12CC[C@H](O)C[C@@H]1CC[C@@H]1[C@@H]2CC[C@@]2(C)[C@H]1CCC(=O)[C@]21CCCO1
    -27% | 15% | ?
CC(C)Nc1nnc(SCC(=O)Nc2sccc2C#N)s1
    -9% | -1% | 15%
CN1C(=O)CSc2ccc(NC(=O)NCc3ccccc3)cc21
    -2% | -8% | 55%[activator]
Cc1cc(C)cc(OCC(=O)OCc2nnc(-c3ccccc3)o2)c1
    -4% | -19% | 6%
CCN1C(=O)[C@@H]2[C@@H](c3ccc(-c4ccc5c(c4)OCO5)c(OC)c3)N3CCC[C@@]3(C(=O)OC)[C@@H]2C1=O
    1% | 11% | -9%
COc1ccc(S(=O)(=O)Nc2cccc3c2O[C@H](CN(C)S(=O)(=O)c2ccc(F)cc2)[C@H](C)CN([C@H](C)CO)C3=O)cc1
    7% | -10% | -6%
COc1ccccc1Nc1nc(N)nc(CSC(=S)N2CCN(c3ccccc3)CC2)n1
    2% | -2% | -7%
Cc1ccsc1/C=C(\C#N)C(=O)NC1CCS(=O)(=O)C1 (stereo not given)
    1% | 1% | -2%
CCOC(=O)C1=C(COC(=O)c2ccc3ccccc3c2O)NC(=O)NC1C (stereo not given)
    0% | -1% | ?
COC(=O)c1ccc(C(=O)N(CCN(C)C)c2nc3c(Cl)cccc3s2)cc1
    2% | 0% | -7%
COc1ccc(Cl)cc1NC(=O)CN(C)C(=O)CCCNC(=O)c1ccc(Cl)cc1
    -1%[6.58 µM] | 2% | 8%
C[C@H](CO)N1C[C@H](C)[C@@H](CN(C)Cc2ccncc2)Oc2c(NS(=O)(=O)c3cccs3)cccc2C1=O
    -1% | 4% | 48%[activator]

(more compounds)
Values run as follows: SARS PLP yeast | RE007 growth inh | StopGo reporter
COc1ccc2c(c1)[C@H]1[C@H](CO2)[C@H](c2ccccc2)[C@]2(C)C(=O)N(Cc3ccc(C)cc3)CC(=O)N12
    2% | 4% | -30%
Cc1ccc(S(=O)(=O)N2CCN(C(=O)CCc3c[nH]c4ccccc34)CC2)cc1
    -11% | 7% | -9%
O=C(Cc1ccccc1)NNc1ccc2ccccc2c1
    0% | 31% | 27%
COc1cccc(NC(=O)CN(C)C(=O)C23CC4CC(CC(Cl)(C4)C2)C3)c1
    4% | 5% | -28%
CCCCN(C(=O)c1c(-c2ccccc2)noc1C)c1c(N)n(CCC)c(=O)[nH]c1=O
    -3% | 3% | -22%
COC(=O)[C@]1(Cc2ccccc2)N[C@H](CN(C)C(=O)Nc2ccc(C(F)(F)F)cc2)[C@@H]2C(=O)N(Cc3ccccc3)C(=O)[C@@H]21
    -2% | -3% | 0%
O=c1oc(CCO)cc2ccc(-c3ccc4[nH]ccc4c3)cc12
    -3% | -2% | 60%[activator]
COc1ccccc1CNC(=O)COC(=O)C1CC1
    -3% | 1% | 15%
O=C1[C@H](c2ccccc2)[C@@H](c2ccccc2)N1c1ccncc1
    -32% | -17% | ?
COc1ccccc1CNC(=O)C1CCN(C(=O)NC2CCCCC2)CC1
    1% | -20% | -15%
CC(NCC(=O)Nc1cc(S(=O)(=O)N2CCCCCC2)ccc1Cl)c1ccccc1 (stereo not given)
    -10% | -9% | ?
O=C(c1ccc(S(=O)(=O)N2CCCCCC2)cc1)N1CCN(Cc2ccccc2)CC1
    -6% | 4% | ?
O=C(N/N=C/c1cccc(O)c1)c1ccc(NC(=O)c2cccc([N+](=O)[O-])c2)cc1
    1% | -11% | -15%
O=C(CN1C(=O)NC(CCc2ccccc2)C1=O)Nc1ccc(F)c(F)c1F (stereo not given)
    2% | 13% | -21%
O=C(COc1ccccc1Cl)NNC(=O)Cn1[nH]c(=O)c2ccccc2c1=O
    -1% | 1% | -21%
CCN(CC)C(=O)[C@H]1C[C@H](CC(=O)NCC23CC4CC(CC(C4)C2)C3)C(=O)N2CCc3c([nH]c4cc(CCC(=O)N(C)C)ccc34)[C@]12C
    -12% | -11% | -26%
CCCCNS(=O)(=O)CCNCc1ccc(OC)cc1
    -16% | -7% | -1%
CCOc1ccc(NC(=O)CN(C)C(=O)Cc2ccsc2)cc1OCC
    -1% | 3% | -12%
COc1ccc(NC(=S)NC(NC(=O)CF)C(Cl)(Cl)Cl)cc1[N+](=O)[O-] (stereo not given)
    0% | -3% | -3%
O=C(COC(=O)C1CC2CCCC(C1)C2=O)Nc1ccc(Cl)cn1 (stereo not given)
    5%[6.58 µM] | -4% | 7%
CCc1noc(C)c1C(=O)OC(C)C(=O)c1c(C)[nH]c2ccccc12 (stereo not given)
    -7% | 6% | -22%
COC(=O)C1=C(c2cccc(C#N)c2)C[C@@H]2CC[C@H]1N2C(=O)NCCO
    5% | 7% | -9%
CCOC(=O)c1ccc(/C=C2\c3ccccc3C(=O)N2c2ccccc2)cc1F
    -3% | 0% | 27%
Cc1cc(F)ccc1NC(=O)Cn1c(C)csc1=O
    6% | -10% | -16%
COc1ccc(NC(=S)NCc2cccs2)cc1OC
    0% | 16% | 46%[activator]
O=C(CCCc1nc2ccccc2s1)Nc1ccc(N2CCOCC2)cc1
    -1% | -8% | -6%

Screens deposited in PubChem BioAssay by National Center for Advancing Translational Sciences (NCATS).
